motility – Vibrio cholerae motility inhibitors, OD read-out (AID 588778); Vibrio cholerae motility, OD read-out; higher % means a stronger effect; test concentration not given here; primary cut-off and reference of the scale not given here; strong numbers were not always called active; inhibition, %; hits with a dose series show IC50 in µg/mL; 10,000 tested, under 10 active; in the data active = confirmed in a dose series
motility viability – also measured in motility; calls as there; inhibition, %; measured here: bacterial viability at 10 ug/mL;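 higher means fewer living bacteria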
* = called active by the depositor.

SMILES	motility	motility viability
Cc1cc(C)n(-c2ccc(C)c(Cl)c2)n1	7.7%	-1.1
CC(C)C(NC(=O)COc1ccccc1)C(=O)O (stereo unspecified)	-8.6%	-6.2
O=C(Oc1ccccc1NS(=O)(=O)c1ccccc1)c1ccccc1	-6.2%	-7.9
Cc1ccc2nsnc2c1S(=O)(=O)Nc1cccc2cccnc12	22.4%	4.4
Cc1nnc(OCc2nc3ccccc3n2C)c2ccccc12	-3.3%	-4.8
O=c1c2ccccc2cnn1Cc1cccc(Br)c1	31.1%	9.0
COC(=O)c1ccc(SC2CCCCC2)c([N+](=O)[O-])c1	1.1%	-0.2
N/C(=N\OC(=O)COc1ccc2ccccc2c1Br)c1ccccn1	9.5%	6.4
O=C(Nc1ccccc1C(F)(F)F)c1ccc(CSc2ccc(Cl)cc2)cc1	-4.1%	19.8
Fc1cccc(Cl)c1CSCCNC(=S)Nc1ccccc1	23.4%	8.0
COc1cc(C=O)ccc1OC(=O)c1ccncc1	73.9%	26.3
Cc1cccc(C(CC(=O)NCc2ccco2)c2ccccc2)c1O (stereo unspecified)	21.4%	5.8
C=C(C)Cn1c(=S)[nH]c2ccc(I)cc2c1=O	-23.2%	-13.0
O=C(NCCN1CCOCC1)C1CC1c1ccccc1 (stereo unspecified)	-0.9%	-1.3
O=S(=O)(CCc1nc2ccccc2s1)c1ccc2ccccc2c1	-28.0%	-13.4
O=C(NCCC1=CCCCC1)c1cc(-n2cnnc2)ccc1Cl	-32.3%	-6.6
Cc1cc(C)c(C#N)c(SC2CCCCC2=O)n1 (stereo unspecified)	-14.6%	-8.6
CNC(=O)c1cc2cc(Cc3ccccc3)cc([N+](=O)[O-])c2oc1=O	-2.1%	1.4
O=C(CN1C(=O)C2C3C=CC(C3)C2C1=O)Nc1ccc2c(c1)oc1ccccc12 (stereo unspecified)	9.4%	-2.0
CCNc1ccc(S(=O)(=O)C(F)(F)C(F)C(F)(F)F)cc1[N+](=O)[O-] (stereo unspecified)	-14.2%	-3.5
O=C(CSc1ccccn1)Nc1nccs1	11.9%	-2.1
O=C(CCSc1nnnn1-c1ccccc1)N1CCOCC1	19.9%	9.8
COc1ccccc1NC(=O)CCCC(=O)OCC(F)(F)C(F)F	10.8%	2.3
Cc1cc(=O)[nH]c(SCCOCCOc2ccccc2-c2ccccc2)n1	-12.7%	-1.9
Cc1cc(C)nc(NS(=O)(=O)c2ccc(NC(=O)c3sc4ccccc4c3Cl)cc2)n1	-33.1%	-10.1
C/C=C/c1ccc(OCCn2nnc3ccccc32)c(OC)c1	-6.3%	2.0
COc1ccc(CCC(=O)Nc2ccc(-c3noc(-c4cccc([N+](=O)[O-])c4C)n3)cc2)cc1	-13.1%	-9.1
CNC(=O)COc1ccc(Cl)c2cccnc12	23.7%	8.3
N#C/C(=C/c1ccccc1Br)c1ccc(C(=O)O)cc1	1.4%	-3.8
CCc1ccc(CCC(=O)Nc2nnc(C)s2)o1	3.7%	-1.6
O=C(O)CCN1C(=O)c2ccc(NC(=O)c3ccco3)cc2C1=O	-1.1%	-0.1
O=[N+]([O-])c1ccc(CSCc2ccccc2)cc1	21.8%	1.0
O=C1NN(c2ccccc2)C(=O)C2C3c4ccccc4C(c4ccccc43)C12 (stereo unspecified)	-5.4%	-1.0
c1cc2c(cc1-n1nnnc1SCSc1nnnn1-c1ccc3c(c1)OCO3)OCO2	-4.3%	-4.0
CC1CC(C)CN(CCCCOc2ccccc2[N+](=O)[O-])C1 (stereo unspecified)	17.2%	5.7
CCOC(=O)Cc1ccc(-n2c(C)ccc2C)cc1	-3.1%	-3.0
CCOC(=O)c1ccc(NC(=S)NNC(=O)c2cc(Br)ccc2Cl)cc1	26.1%	4.6
O=C(Nc1nccs1)c1ccc(COc2c(F)c(F)cc(F)c2F)cc1	-9.7%	-4.8
O=C(NC(Nc1cccc([N+](=O)[O-])c1)C(Cl)(Cl)Cl)c1cccc(I)c1 (stereo unspecified)	7.3%	-9.0
C1CSC2(N1)C1CC3CC2CC(C1)C31NCCS1 (stereo unspecified)	3.2%	-6.1
CCc1ccc(-c2cc(C(=O)Nn3cnnc3)c3ccccc3n2)cc1	33.9%	44.6
COC(=O)c1cc(Cl)c(N)cc1OC	-4.4%	-4.5
O=C(CSc1ccc(Cl)cc1)Nc1ccc(I)cc1Cl	-5.9%	-3.8
Cc1cc(C)cc(C(=O)NN2CCOCC2)c1	-22.2%	-1.7
COC(=O)c1sc2cc(NC(=S)N3CCN(S(C)(=O)=O)CC3)ccc2c1Cl	-27.0%	-12.2
C/C=C/c1ccc(OCCCCN2CC(C)OC(C)C2)c(OC)c1 (stereo unspecified)	1.9%	-0.9
Cc1ccccc1NC(=O)Nc1nc2ccc(S(C)(=O)=O)cc2s1	15.4%	-0.4
O=C(NCCSc1ccccn1)c1ccc(CN2CCOCC2)cc1	-30.2%	-4.5
CN(C1=NC(=O)CS1)c1ccc(O)cc1	7.5%	-5.8
Cc1cccc(NC(=O)c2cc(NC(=O)c3ccco3)ccc2Cl)n1	0.7%	-3.2
CCC(C)N(C(=O)c1ccc(-c2ccccc2)cc1)C(C)CC (stereo unspecified)	9.0%	2.3
COC(=O)c1sc(NC(=S)Nc2ccc(S(=O)(=O)NC34CC5CC(CC(C5)C3)C4)cc2)c(C(=O)OC)c1C	-7.5%	-6.9
O=C1OCCC1Sc1cccc2cccnc12 (stereo unspecified)	8.2%	3.1
Cc1occc1C(=O)Nc1cc(=O)n(C)c(=O)n1C	3.6%	-1.3
Cn1c(CNC(=O)c2ccco2)nnc1SCC(=O)N1c2ccccc2Sc2ccccc21	-2.9%	-0.6
CC(=O)c1cccc(NC(=O)Nc2ncn(Cc3ccc(Cl)c(Cl)c3)n2)c1	-10.5%	-7.1
Cc1nc2cc(-c3ccc(I)cc3)[nH]n2c(=O)c1Cl	-8.9%	-7.5
Cc1ccnc(NC(=O)CSc2nnc3c(n2)[nH]c2ccccc23)c1	-1.3%	-0.3
O=C(Oc1ccc2c3c(c(=O)oc2c1)CCCC3)C(F)(F)F	31.4%	9.3
CC(C)Oc1ccc2ccccc2c1C=O	32.2%	16.5
Next section.
SMILES	motility	motility viability
CNC(=O)C1=NCCCc2cc(OC)c(OC)cc21	1.4%	1.1
Cc1oc2cc(CC(=O)Nc3ccc(F)cc3F)ccc2c(=O)c1-c1ccccc1F	0.6%	-0.7
O=C(Nc1ccc(Br)cn1)c1cc(F)c(F)cc1Cl	11.0%	19.6
O=C1CCCCC1C(O)c1ccc(Br)cc1 (stereo unspecified)	16.9%	-9.2
N#Cc1cc2c(nc1SCC1(O)CCCc3ccccc31)CCCC2 (stereo unspecified)	8.3%	-3.1
Fc1ccc(NC(=S)NCCc2cnc[nH]2)cc1Cl	3.3%	8.2
COc1ccc(C(C)=O)cc1COc1ccc([N+](=O)[O-])c(C)c1	-1.4%	-3.0
C=CCn1c(SCCCC)nc(O)cc1=O	19.0%	6.1
COc1ccc(C(=O)NCc2ccccc2Cl)cc1[N+](=O)[O-]	16.8%	24.5
Cc1cc(C(=O)Nc2ccccn2)no1	-3.1%	7.0
Cn1c(O)c(C=NCCN2CCOCC2)c(=O)n(C)c1=O	2.3%	-1.6
C=CCc1ccc(OCC(O)CN2CCN(c3cc(Cl)ccc3C)CC2)c(OC)c1 (stereo unspecified)	2.0%	1.8
O=C(NNC(=S)Nc1ccc(F)cc1F)c1ccc(Br)s1	58.6%	18.9
O=C(CN1CCN(c2cccc(Cl)c2)CC1)c1ccc(Cl)cc1	-8.6%	-5.9
Cc1onc(-c2ccccc2)c1C(=O)O	-26.9%	-13.3
CC(Oc1ccc(C=O)cc1)c1ccccc1 (stereo unspecified)	-6.9%	4.1
CCSc1nnc(NC(=O)C2(C)Cc3ccccc3C(=O)O2)s1 (stereo unspecified)	12.9%	3.3
Cc1nn(C)cc1CN1CCN(C(=S)NCCc2ccccc2)CC1	22.4%	0.1
O=C(Nc1cccc2ccccc12)C1CCCC1	0.3%	-6.3
Cc1nnc(NC(C)c2ccccc2)[nH]c1=O (stereo unspecified)	33.1%	11.8
Cc1cc(C)nc(NS(=O)(=O)c2ccc(NC(=O)Cn3cnc4ccccc4c3=O)cc2)n1	6.2%	15.8
CN(c1nc(-c2ccccc2)cs1)C1CCS(=O)(=O)C1 (stereo unspecified)	12.7%	1.7
O=C(Nc1cc2nn(-c3ccccc3)nc2cc1Cl)c1ccc([N+](=O)[O-])o1	-8.5%	-4.4
Cc1ccc(C(=O)NNC(=O)CNC(=O)C2CCCCC2)cc1I	39.1%	13.6
CCn1ncc(NC(=S)Nc2ccccc2C(F)(F)F)c1C(N)=O	6.2%	-4.7
CC(=O)c1cccc(NC(=O)Nc2c(C)nn(C)c2C)c1	0.4%	-2.1
CN(C)CCC(=O)C12CC3CC(CC(C3)C1)C2	9.4%	0.6
Cc1cc(NC(=O)CC23CC4CC(CC(C4)C2)C3)ccc1NC(=O)c1ccccc1	-26.6%	2.9
Clc1ccc(CN2CCN(c3ncnc4sc5c(c34)CCC5)CC2)c(Cl)c1	17.0%	-3.4
NC(=O)c1ccc(N2CCOCC2)nc1	-6.5%	2.8
O=C(Nc1cc(C(F)(F)F)ccc1Cl)C1CCC(N2C(=O)C3C4C=CC(C5CC45)C3C2=O)CC1 (stereo unspecified)	-0.1%	-5.3
CC(=O)c1cccc(NC(=O)NNC(=O)c2ccccc2Br)c1	-1.0%	0.3
C=CCOc1ccc(NC(=O)C(=O)NCCCn2ccnc2)cc1	1.3%	4.1
COC(=O)c1c(NC(=O)C(C)Oc2cccc(C)c2C)sc(C(C)=O)c1C (stereo unspecified)	3.5%	15.7
Cn1ccnc1SCC(=O)NCc1cc(C(=O)c2ccccc2)ccc1O	15.8%	-4.6
COc1cc(NC(=O)Nc2ccc(F)cc2F)c(OC)cc1Cl	-28.4%	-1.3
Oc1c(Cl)cc(NC(=S)NCCc2ccccc2)cc1Cl	8.6%	0.6
Cc1cc(S(=O)(=O)NCc2cccnc2)c(C)cc1Br	9.4%	-1.3
COC(=O)c1ccc(Cl)c(NC(=O)C(C)NC(=O)C(c2ccccc2)c2ccccc2)c1 (stereo unspecified)	-12.2%	-4.1
Cc1ccc(C(O)(c2ccc(C)cc2)c2ccccc2N)cc1	-11.6%	-8.2
Cc1[nH]c(=O)[nH]c(=O)c1N1CCOCC1	-15.3%	-7.2
CCOC(=O)CNC(=O)c1ccc(OC)c(Br)c1	-0.5%	0.5
CC1(C)NC(=O)N(CCSc2ccc(Cl)cc2)C1=O	11.9%	3.8
COC(=O)COc1ccc(NC(=O)COc2ccc(Br)cc2)cc1	11.3%	-8.5
O=C(COc1ccccc1[N+](=O)[O-])Nc1ccc(Br)cc1C(=O)O	27.7%	6.5
Cc1ccc(C(=O)O)cc1NC(=S)Nc1ccc(F)cc1F	-6.5%	4.6
O=C(Nc1ncc(Cc2ccc(SC(F)F)cc2)s1)c1cccc([N+](=O)[O-])c1	-20.7%	-10.9
C=CCc1cccc(CNc2c(C)cc(C)cc2C)c1O	10.8%	0.6
CC(C)(CO)NCc1ccc(Br)cc1	15.2%	22.5
CC(C)(C)C(=O)NNC(=O)COc1ccc2ccccc2c1Br	-1.2%	-3.2
Cc1ccn(C(=O)CNc2cccc(Cl)c2C)n1	-4.6%	-0.5
O=C(c1csc2ccccc12)N1CCN(C(=O)C2CCCO2)CC1 (stereo unspecified)	-16.4%	-3.6
Cc1ccc(S(=O)(=O)N2CCn3c(nc4ccccc43)C2)cc1	4.9%	-2.2
CSc1ccc(CNc2nnnn2C)cc1	0.4%	2.3
O=C(NCCSc1nnnn1-c1ccccc1)c1ccco1	30.1%	10.2
O=C(CCSc1nc2ccccc2s1)N1CCOCC1	3.2%	-3.6
CC(=O)c1ccc(COC(=O)C2c3ccccc3Oc3ccccc32)cc1	-5.3%	-1.7
COc1ccc(-c2cc(C(=O)N3CCCC3C(=O)O)c(C)o2)cc1OC (stereo unspecified)	28.3%	6.9
CC(C)CNC(=S)NNC(=O)CC(C)O (stereo unspecified)	52.6%	22.3
COc1ccccc1NC(=O)c1ccc(OC(C)C(=O)O)cc1 (stereo unspecified)	-20.2%	-3.4

A second format for some results above:
Cc1ccc(S(=O)(=O)N2CCn3c(nc4ccccc43)C2)cc1
  motility = 4.9%
  motility viability = -2.2

CC1(C)NC(=O)N(CCSc2ccc(Cl)cc2)C1=O
  motility = 11.9%
  motility viability = 3.8

CC(C)(CO)NCc1ccc(Br)cc1
  motility = 15.2%
  motility viability = 22.5

O=C(c1csc2ccccc12)N1CCN(C(=O)C2CCCO2)CC1 (stereo unspecified)
  motility = -16.4%
  motility viability = -3.6

Among those listed so far, these contain a thiophene ring, fused or not:
SMILES	motility	motility viability
Cc1cc(C)nc(NS(=O)(=O)c2ccc(NC(=O)c3sc4ccccc4c3Cl)cc2)n1	-33.1%	-10.1
COC(=O)c1sc2cc(NC(=S)N3CCN(S(C)(=O)=O)CC3)ccc2c1Cl	-27.0%	-12.2
COC(=O)c1sc(NC(=S)Nc2ccc(S(=O)(=O)NC34CC5CC(CC(C5)C3)C4)cc2)c(C(=O)OC)c1C	-7.5%	-6.9
O=C(NNC(=S)Nc1ccc(F)cc1F)c1ccc(Br)s1	58.6%	18.9
Clc1ccc(CN2CCN(c3ncnc4sc5c(c34)CCC5)CC2)c(Cl)c1	17.0%	-3.4
COC(=O)c1c(NC(=O)C(C)Oc2cccc(C)c2C)sc(C(C)=O)c1C (stereo unspecified)	3.5%	15.7
O=C(c1csc2ccccc12)N1CCN(C(=O)C2CCCO2)CC1 (stereo unspecified)	-16.4%	-3.6

Further compounds.
SMILES	motility	motility viability
CCc1c(C)n([O-])c2c([n+]1=O)CCCC2	-3.9%	-4.6
O=S(=O)(Cc1ccc(Cl)cc1)NCC1CCCO1 (stereo unspecified)	-6.4%	-5.2
O=C(CSc1ncn[nH]1)c1cccs1	-10.5%	4.3
O=S(=O)(O)c1nc2ccccc2n1CCOc1ccc(Br)cc1	2.0%	-1.6
COc1cc2c(cc1NC(=S)NC(=O)c1cccs1)oc1ccccc12	-6.1%	-4.7
Cc1ccccc1C(=O)N1CCN(c2ccc(NC(=O)COc3ccc(C(C)C)cc3)cc2)CC1	0.3%	-1.5
O=C(NCCSCc1ccco1)c1ccc(CN2CCOCC2)cc1	7.1%	-3.0
Cc1c(Cl)c(=O)oc2cc(OC(=O)CCNC(=O)OC(C)(C)C)c(Cl)cc12	14.5%	26.6
COc1cc(/C=N/O)ccc1OCc1ccc(Cl)cc1	-15.2%	-5.9
COc1ccc(C(C)(C#N)CC#N)cc1 (stereo unspecified)	16.1%	24.0

This is a subset; rates above refer to the full screens.
